eIF4H inh – inhibitors of RNA binding by human eIF4H; eIF4H fluorescence polarization binding assay; inhibition, % at 35 µM; 290,000 tested, 0.94% active; AID 2012;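 active means 50% or more with normal probe brightness, or confirmed in later tests; inconclusive means above 50% with abnormal brightness, or retests that disagree; inactive means below 50% or failed in later tests; about a fifth of its hits are not listed in these tables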;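 further: calls also rest on retests at 20 µM and on dose response follow-up; 0% = protein and probe with vehicle and 100% = probe without protein; strong numbers were not always called active; many hits fall short of the cut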
HIV Env fusion – HIV envelope-mediated fusion inhibition; 360,000 tested, 1.1% active; inhibition, % at 12.3 µM; HeLa-JRFL Env/CEM21 cell fusion, luciferase; AID 651610;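 active means mean replicate inhibition score of at least 50 and every replicate individually at or above 50; inconclusive means only one of the two criteria met; inactive means mean below 50 and not all replicates reaching 50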;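 further: 0% = plate neutral controls and 100% = maraviroc near 300 nM; one replicate is shown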
MT1-MMP act inh – inhibitors of human MT1-MMP activation | AID 651647 | GFP/RFP ratio change, % at 20 µM | P50281 | HT1080 RFP-PRO-GFP cells, GFP/RFP ratio fluorescence, overnight; percent of plate control window, DMSO zero | 360,000 tested, 0.061% active;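 active means GFP/RFP ratio change of at least 30% with cell ATP level not reduced by more than half and red fluorescence within 50% of control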; further: strong numbers were not always called active
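Assay system – RFP-PRO-GFP reporter HT1080 cells · Compound dosing – single dose of 20 µM compound, 1% DMSO final · Incubation – overnight compound exposure at 37 °C · Measure – GFP/RFP fluorescence ratio · Benchmarks – DMSO wells and RFP-L50D-GFP cells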
Rce1 inh – inhibitors of yeast Ras-converting enzyme; Q03530; yeast membranes, quenched prenylated peptide cleavage fluorescence; calls only; 290,000 tested, 0.27% active; AID 2563;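 active means fall in fluorescence gain of 50% or more versus controls, with final raw signal at or below 3038400; inconclusive means same 50% fall but final raw signal above 3038400; inactive means fall in fluorescence gain under 50%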;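 further: plate controls were neutral control wells for no effect and wells lacking membranes for full effect; tested at 10 µM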
Target sequence (Q03530 whole entry, looked up): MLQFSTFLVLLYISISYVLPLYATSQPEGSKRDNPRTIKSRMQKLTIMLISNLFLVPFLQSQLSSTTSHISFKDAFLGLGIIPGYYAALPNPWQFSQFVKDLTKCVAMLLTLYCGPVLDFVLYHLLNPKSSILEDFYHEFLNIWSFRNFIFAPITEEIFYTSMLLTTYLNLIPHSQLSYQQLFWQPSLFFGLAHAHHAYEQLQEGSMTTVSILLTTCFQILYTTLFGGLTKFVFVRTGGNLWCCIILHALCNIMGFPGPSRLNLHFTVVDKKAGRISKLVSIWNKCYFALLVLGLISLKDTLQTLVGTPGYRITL
UUG fidelity – modulators of start codon recognition fidelity in yeast | S. cerevisiae UUG-firefly luciferase reporter, luminescence/redox ratio | activity score, % at 18.7 µM | 350,000 tested, 0.13% active;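 active means replicate mean at a twofold rise or more, about +100% in these data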;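 further: firefly luciferase made from a UUG start codon reports start codon fidelity; reporter light over untreated wells divided by growth signal over untreated wells; some hits fall short of that in this replicate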
PABP FP inh – blocks human PABP binding to poly(A) RNA. P11940. fluorescence polarization. inhibition, % at 35 µM. 290,000 tested, 1% active. AID 2014;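 active means 50% or more with normal probe brightness, or confirmed in later tests; inconclusive means above 50% with abnormal brightness, or retests that disagree; inactive means below 50% or failed in later tests; about a fifth of its hits are not listed in these tables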;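 further: calls also rest on retests at 20 µM and on dose response follow-up; controls were probe without protein and protein plus probe with vehicle; some compounds called inactive have numbers as strong as hits; many hits fall short of the cut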
CSC inhib – blocks cancer stem cells. inhibition, % at 7.5 µM. cancer stem cell-like cells viability, luminescence. 300,000 tested, 1.1% active;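 active means mean at 75% or more and at least half the replicates too; inconclusive means mean and replicates disagree; tested in HMLE shEcad cells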;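 further: 0% = median of negative and 100% = median of positive control wells; the first replicate is given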
eIF4H inh retest – recorded beside eIF4H inh, whose call it bears; inhibition, %; compound at 20 µM; confirmation average;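 mean of two retest wells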
PABP FP inh retest – second read-out of PABP FP inh, no call of its own (marks repeat the call); inhibition, %; compound at 20 µM; confirmation repeats;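 mean of two retest wells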
MT1-MMP act inh RFP – also measured in MT1-MMP act inh; calls as there; RFP signal change, %; measured here: RFP expression control read;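 0 = vehicle wells; hits needed this value within 50% of zero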
Starred values were filed as active, the others as inactive; i = inactive; ? = inconclusive; . = no result given; & = joins results of further samples.

SMILES	eIF4H inh	HIV Env fusion	MT1-MMP act inh	MT1-MMP act inh RFP	Rce1 inh	UUG fidelity	PABP FP inh	CSC inhib	others
Cc1cc(=O)[nH]c(N2CCOCC2)n1	-12.3	11.4	0.2	7.1	i	.	-6.6	-10.8
O=C(CSc1ccc(Br)cc1)N1CCOCC1	-6.4	-28.2	-0.8	1.0	i	-16.7	-6.1	-13.2
O=C(Nc1ccc(N2CCOCC2)cc1)c1cc2ccccc2o1	-1.1	.	5.3	0.2	i	-4.9	-1.5	7.3
Cc1cc(=O)n2nc(N3CCCC3C(=O)NCc3ccccn3)sc2n1 (configuration not stated)	-3.0	.	-5.6	3.3	i	-26.7	9.7	-3.3
O=C(COC(=O)c1nc(-c2ccccc2)n(-c2cccc(C(F)(F)F)c2)n1)NCc1cccs1	-3.6	-0.5	-1.1	2.8	i	.	1.9	.
Cc1cc2c(cc1C)CSC(c1ccc3ccccc3c1O)SC2	-1.1	3.3	8.2	8.6	i	.	-3.6	3.9
CN1C(=O)C(C)(C)c2cc(S(=O)(=O)N3CCC(C(=O)NCc4ccc(F)cc4)CC3)ccc21	-9.4	-21.8	0.3	2.1	i	-22.1	-8.8	11.1
COc1ccc(CNC(=O)COc2cc(O)c3c(c2)OC(C)(C)CC3=O)cc1	0.1	.	-3.8	-2.1	i	0.8	-9.2	8.8
O=C(CN1C(=O)C2CC=CCC2C1=O)Nc1nccs1 (configuration not stated)	-1.8	.	-0.5	-1.3	i	.	12.6	2.4
Cc1ccc(S(=O)(=O)Oc2ccccc2/C=N/NC(=O)c2c(Cl)cnn2C)cc1	-0.4	9.7	7.2	-8.9	i	4.0	-2.4	-0.9
CCOC(=O)C1CCN(S(=O)(=O)c2ccc(OC)c(Cl)c2)CC1	-10.0	-6.0	-0.8	-1.7	i	.	-4.4	2.8
CS(=O)(=O)N(CC(=O)NCCSc1ccccc1)c1ccc2c(c1)OCO2	10.4	.	2.4	-0.8	i	.	-10.1	7.1
O=C(NCCc1ccc(F)cc1)Nc1ccc2c(c1)OCO2	-5.7	-6.1	-3.7	-0.2	i	.	2.3	-5.5
Cc1ccc(NC(=O)CN(C)S(=O)(=O)c2ccc(Cl)s2)c(O)c1	.	-7.2	6.1	2.3	.	-15.4	.	-2.6
O=C(C1CCC(CNc2c(N3CCCCC3)c(=O)c2=O)CC1)N1CCc2ccccc2C1 (configuration not stated)	-2.9	25.0	-1.2	-2.9	i	5.8	6.0	.
O=C(NC12CC3CC(CC(C3)C1)C2)N(Cc1ccccc1)Cc1ccncc1	10.0	61.5*	-22.4	-11.3	i	-21.7	8.4	.
CCOC(=O)/C(C#N)=C/c1cn(CCC(=O)O)nc1-c1ccc(Cl)cc1	-16.4	10.5	-2.1	-1.1	i	.	-18.7	6.8
CC(C)Oc1ccc(S(=O)(=O)N2CCOCC2)cc1NC(=O)c1ccc(Cl)c(S(=O)(=O)N2CCOCC2)c1	.	-6.6	1.0	1.6	.	9.5	.	.
Cc1ccc(C(=O)N2CCc3ccccc32)cc1[N+](=O)[O-]	-16.4	-5.1	-3.2	-3.1	.	-17.6	7.5	-12.0
CC(=O)NC(Cc1cccc(C)c1)C(=O)NC1CCN(C(=O)NCc2ccccc2)CC1 (configuration not stated)	52.1	-11.3	1.1	4.9	i	-7.2	3.2	.	eIF4H inh retest=-8.1;PABP FP inh retest=1.9
O=C(NN=Cc1ccc(N2CCOCC2)cc1)c1cc2ccccc2cc1O	.	.	-1.3	2.6	.	-15.9	.	10.1
CCN1C(=O)/C(=C/C=C2\C=CN(CC)c3ccccc32)SC1=S	?	-21.7	56.3	82.2	i	-13.0	-4.0	20.6
CN(CC1CCCO1)S(=O)(=O)c1ccc(C(=O)Nc2ccc(F)cc2)cc1 (configuration not stated)	-6.9	1.4	3.4	-11.3	i	-11.7	9.2	-10.3
CN(C)S(=O)(=O)c1ccc(C(=O)OCCCN=C2NS(=O)(=O)c3ccccc32)cc1	2.3	0.4	0.0	3.5	i	-11.6	2.9	5.2
CC1CCCN(C(=O)c2ccc(NS(=O)(=O)c3cccc([N+](=O)[O-])c3)cc2)C1 (configuration not stated)	.	?	0.4	-13.8	i	.	.	.
CCOc1ccc(NC(=O)c2ccc3c(SCC(=O)O)c4c(nc3c2)CCCC4)cc1	11.2	-14.4	4.8	6.8	i	.	0.8	6.6
COc1ccccc1C(=O)CSc1nnc(-c2ccco2)o1	-8.9	-27.7	2.4	10.1	i	.	-2.7	1.1
NC(=O)C1CCCN(S(=O)(=O)c2ccc(Br)cc2)C1 (configuration not stated)	-5.6	.	4.2	4.7	i	-9.4	8.3	-2.8
Cc1ccc(NC(=O)Cc2nnc(SCC(=O)NC3CCCC3)n2C)c(C)c1	7.9	3.0	1.3	2.7	i	-5.7	11.8	-20.3
CC(=O)Nc1cccc(C(=O)Nc2ccccc2C(=O)O)c1	2.9	-19.1	3.7	2.8	i	-16.3	19.6	13.4
COc1cc(C(=O)OC(C)C(=O)N2CCc3ccccc3C2)ccc1OCC(=O)N1CCOCC1 (configuration not stated)	-1.3	4.5	3.8	4.7	i	-13.1	7.2	-4.9
COc1ccc(/C(C)=N/NC(=O)CNC(=O)c2ccncc2)c(OC)c1	-9.5	-2.1	6.3	5.0	i	-7.6	1.9	9.7
CSC(=Nc1ccccc1)C(C#N)c1nc2ccccc2[nH]1 (configuration not stated)	17.1	-7.5	-2.0	-5.2	i	5.5	-5.3	-0.5
O=C1CC(SC(=Nc2ccccc2)Nc2ccccc2)C(=O)N1c1ccc(Cl)cc1 (configuration not stated)	-2.9	.	-0.2	-4.4	i	-16.0	2.2	6.3
NS(=O)(=O)c1ccc(CNC(=O)Cc2ccccc2[N+](=O)[O-])cc1	3.3	5.8	-0.4	1.4	i	-13.0	-5.4	0.9
COc1ccc(CCNc2ccc(C(CC(N)=O)NC(=O)c3cc(C)cc(C)c3)cc2[N+](=O)[O-])cc1 (configuration not stated)	-6.8	1.4	2.2	4.4	i	-5.9	-2.0	-3.6
COc1ccccc1C(=O)Nc1ccnn1C1CCN(C2CCCCC2)CC1	.	11.8	0.3	4.8	.	-8.5	.	.
CC(C)OC(=O)c1cc2c(ccn2-c2ccc(F)cc2)n1CC(=O)N1CCN(C(=O)c2ccco2)CC1	-4.3	2.2	3.4	-0.8	i	-1.6	3.8	-19.8
CCOc1ccc(N2CC(=O)Nc3ccccc3NCC2=O)cc1	2.9	-5.0	-7.0	-12.1	i	-13.6	3.6	6.5
N#CC1=C(N)Oc2n[nH]c(-c3cccs3)c2C1c1ccoc1 (configuration not stated)	34.6	.	-5.6	2.8	i	-13.6	44.7	8.9
Cn1cc(C(=O)NCCc2ccccc2)c(=O)c2cc(S(=O)(=O)N3CCOCC3)ccc21	.	2.9	1.8	1.0	.	-11.7	.	.
CC(C)(C)Cn1c(=O)[nH]c(=O)c2cc([N+](=O)[O-])cnc21	7.7	.	0.1	2.0	i	.	4.3	10.7
CCc1ccc(-c2nc(CSCC(=O)N3CCN(c4ccccn4)CC3)c(C)o2)cc1	-10.1	85.6*	2.1	-19.3	i	-6.9	-1.6	-11.0
O=C(COc1ccccc1Cl)OCC(=O)N1CCN(S(=O)(=O)c2ccccc2)CC1	-0.8	-16.2	-0.4	5.6	i	0.8	6.5	-3.4
C[C@H](CO)N1C[C@H](C)[C@@H](CN(C)S(=O)(=O)c2cccs2)Oc2c(NC(=O)Nc3ccc4c(c3)OCO4)cccc2C1=O	.	-2.2	0.3	-2.9	.	-1.0&-0.7	.	.
Cc1cccc(NC(=O)NN2CCN(C)CC2)c1C	-4.7	-9.5	1.0	4.0	i	-10.8	-2.5	-3.3
Oc1cc(-c2ccncc2)cc2cccnc12	.	-23.6	-12.3	-4.9	.	-33.3	.	.
CC(=O)Oc1cc2c(C(=O)NCCN3CCOCC3)c(C)oc2c2ccccc12	-1.6	.	1.0	-1.0	i	-3.1	2.8	6.2
COC(=O)c1ccccc1NC(=O)C(C)Oc1ccccc1 (configuration not stated)	-5.9	-40.3	-1.8	4.3	.	-12.2	-3.9	-8.8
COc1ccccc1Cc1c(-c2ccco2)nc2ccc(Cl)cn12	.	-82.9	-7.4	-2.2	.	-15.7	.	.
O=C(N/N=C/c1ccco1)C1CCCC1	15.6	.	1.8	4.2	i	-13.5	17.3	-12.8
O=C(NCc1cccc(C(F)(F)F)c1)N1CCN(S(=O)(=O)c2ccccc2F)CC1	-5.0	6.3	3.0	1.1	i	-3.5	1.5	-4.7
CCCOC(=O)CC1C(=O)NCCN1Cc1ccc(F)cc1 (configuration not stated)	-5.4	-3.3	-0.8	0.9	i	-0.8	11.2	-18.8
COc1cc([N+](=O)[O-])cc(/C=N/NC(=O)CSc2nnc(-c3ccccc3)n2C)c1O	7.0	.	.	.	.	.	-4.7	-4.0
COc1ccc(N2CCN(CC(=O)Nc3ccc(C)cc3)CC2)cc1	4.6	8.6	0.9	5.3	i	-5.0	20.8	-0.6
COc1ccc(CCNC(=O)C2CCN(S(=O)(=O)c3ccc(OC)c(OC)c3)CC2)cc1OC	3.3	-5.6	-2.3	0.3	i	2.9	2.3	8.0
COC(=O)CC1=NN(c2ccccc2)C(=O)C1	-2.2	-5.6	3.7	-0.5	i	.	21.9	-7.1
Cc1cc2ccccc2n1CCNCc1c(C(=O)N2CCOCC2)nc2ccccn12	34.2	-12.2	-6.0	1.6	i	-0.9	21.3	-13.0
Cn1c(=O)c2c(ncn2CC(=O)Nc2cc(S(=O)(=O)N3CCCCC3)ccc2Cl)n(C)c1=O	.	13.5	3.5	-1.4	.	1.4	.	-3.7
Clc1nccnc1-c1ccccc1	-8.8	.	-1.0	-1.4	i	.	-8.5	-1.7

More results:
SMILES	eIF4H inh	HIV Env fusion	MT1-MMP act inh	MT1-MMP act inh RFP	Rce1 inh	UUG fidelity	PABP FP inh	CSC inhib	others
CCc1ccccc1N(CC(=O)NC1CCCC1)C(=O)CNC(=O)c1cccs1	-8.8	-1.3	-3.6	-4.7	i	8.3	-7.7	0.6
CN(CCCC(=O)NCc1ccccc1)S(=O)(=O)c1ccc([N+](=O)[O-])cc1	-0.7	-12.5	1.0	-2.5	i	6.4	-6.7	.
Cc1cc(C)c(C(=O)N2CCCC(N3CCN(c4cccc(C(F)(F)F)c4)CC3)C2)o1 (configuration not stated)	-8.3	26.9	-0.4	-13.3	i	3.8	-12.2	34.8
Cc1nc2ccccc2c(=O)n1/N=C/c1cccnc1	-2.9	-145.1	-1.8	-0.5	i	-1.6	-1.4	-15.9
N#CC1=C(N)OC2=C(C(=O)CCC2)C1c1cc2c(cc1Br)OCO2 (configuration not stated)	-6.5	-9.6	-2.2	3.8	i	-7.5	1.7	-17.7
Cc1ccc(C(=O)OCC(=O)Nc2ccc3c(c2)OCO3)c(O)c1	.	.	0.6	1.8	.	-20.4	.	-13.5
COc1ccccc1N(C)S(=O)(=O)c1ccc(C(=O)Nc2ccc3nc(C)sc3c2)cc1	13.9	31.8	-1.0	-8.1	i	-3.1	-10.2	17.3
O=C(COc1cccc(Cl)c1Cl)NC1CC1	.	17.4	5.4	-4.0	.	-14.5	.	-3.7
CCOc1ccc(/C=N/NC2=NCCCCC2)cc1	-3.5	-10.8	2.0	2.2	i	.	8.5	.

Assay outcomes as filed in PubChem BioAssay.

This is a subset; the hit share may differ from the screen's.
